# From PubChem BioAssay
# HIV Env fusion = inhibitors of HIV Env-mediated cell fusion; inhibition, % at 12.3 µM; 360,000 tested, 1.1% active; HeLa-JRFL Env/CEM21 cell fusion, luciferase;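 active = mean replicate inhibition score of at least 50 and every replicate individually at or above 50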;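 note: 0% = plate neutral controls and 100% = maraviroc near 300 nM; one replicate is shown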
# UUG fidelity = modulators of start codon recognition fidelity in yeast | activity score, % at 18.7 µM | S. cerevisiae UUG-firefly luciferase reporter, luminescence/redox ratio | 350,000 tested, 0.13% active;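 active = replicate mean at a twofold rise or more, about +100% in these data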;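 note: firefly luciferase made from a UUG start codon reports start codon fidelity; reporter light over untreated wells divided by growth signal over untreated wells; some hits fall short of that in this replicate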
# Active calls of the source: *; [ ] = another dose, or the depositor's remark. The list is partial (hit frequency here may not be typical).
SMILES,HIV Env fusion,UUG fidelity
COc1ccc(NC(=O)Nc2ccc3c(c2)C(=O)N([C@@H](C)CO)C[C@@H](C)[C@H](CN(C)Cc2ccc(C(F)(F)F)cc2)O3)cc1,13[16.7 µM],0
O=C(C[C@@H]1C=C[C@@H](NC(=O)Nc2cc(F)ccc2F)[C@H](CO)O1)NCc1ccccn1,0[16.7 µM],-21
C[C@H]1CN([C@@H](C)CO)C(=O)c2cc(NS(C)(=O)=O)ccc2O[C@H]1CN(C)C(=O)Nc1ccc(C(F)(F)F)cc1,36[16.7 µM],-8
C[C@H](CO)N1C[C@H](C)[C@H](CN(C)C(=O)NC2CCCC2)Oc2ncc(-c3cccc(F)c3)cc2C1=O,2[16.7 µM],6
CN1C(=O)[C@@H]2[C@@H](CC(COc3ccccc3)=C3[C@@H](c4ccccc4)OB(O)C[C@@H]32)C1=O,14[16.7 µM],1
C[C@@H]1CN([C@H](C)CO)C(=O)Cc2cc(NS(=O)(=O)c3ccc(Cl)cc3)ccc2O[C@H]1CN(C)S(=O)(=O)c1ccc(F)cc1,10[16.7 µM],19
COc1ccc(NC(=O)N(C)C[C@@H]2Oc3c(NS(C)(=O)=O)cccc3C(=O)N([C@H](C)CO)C[C@@H]2C)cc1,0[16.7 µM],-7
C[C@@H]1CCCCO[C@H](CN(C)Cc2ccc(Cl)c(Cl)c2)[C@@H](C)CN([C@H](C)CO)C(=O)c2cc(NC(=O)c3ccccc3)ccc2O1,-15[16.7 µM],4
CCCNC(=O)N(C)C[C@H]1Oc2cc(C3=CCCCC3)ccc2S(=O)(=O)N([C@@H](C)CO)C[C@@H]1C,-15[16.7 µM],9
C[C@H](CO)N1C[C@H](C)[C@@H](CN(C)Cc2ccccc2)Oc2ncc(C3=CCCC3)cc2C1=O,11[16.7 µM],30
C[C@@H]1CN([C@H](C)CO)S(=O)(=O)c2ccc(C#C[C@@H](C)O)cc2O[C@H]1CN(C)Cc1cncnc1,22[16.7 µM],11
O=C(C[C@@H]1CC[C@@H](NC(=O)C2CC2)[C@@H](CO)O1)NCCCN1CCOCC1,5[16.7 µM],-7
COc1cccc(C(=O)Nc2ccc3c(c2)C(=O)N(C)[C@H]2CC[C@H](CC(=O)NCc4ccc(F)cc4)O[C@@H]2CO3)c1,1[16.7 µM],1
CCCN(C)C[C@H]1OCCCC[C@@H](C)Oc2ccc(N(C)C)cc2C(=O)N([C@@H](C)CO)C[C@H]1C,-13[16.7 µM],10
C[C@@H]1CN([C@H](C)CO)C(=O)c2cc(NS(=O)(=O)c3ccc(F)cc3)ccc2O[C@H]1CN(C)C(=O)NC1CCCCC1,12[16.7 µM],-19
COCC(=O)N(C)C[C@@H]1Oc2cc(C#CC(C)C)ccc2S(=O)(=O)N([C@H](C)CO)C[C@@H]1C,-17[16.7 µM],-9
O=S(=O)(N[C@@H]1CC[C@H](CCn2cc(C3CC3)nn2)O[C@H]1CO)c1ccc(F)cc1,-6[16.7 µM],-1
COc1ccc(NC(=O)N(C)C[C@@H]2OCCCC[C@H](C)Oc3ccc(NS(=O)(=O)c4cccs4)cc3C(=O)N([C@H](C)CO)C[C@@H]2C)cc1,-12[16.7 µM],27
Cc1noc(C)c1S(=O)(=O)Nc1ccc2c(c1)C(=O)N([C@@H](C)CO)C[C@@H](C)[C@H](CN(C)C(=O)Nc1ccc3c(c1)OCO3)OCCCC[C@@H](C)O2,-20[16.7 µM],8
Cc1ccc(S(=O)(=O)N[C@@H]2CC[C@H](CCNC(=O)C3CCCCC3)O[C@H]2CO)cc1,10[16.7 µM],-4
C[C@H]1CN([C@@H](C)CO)S(=O)(=O)c2ccc(-c3ccccc3F)cc2O[C@H]1CN(C)C,-4[16.7 µM],-4
C[C@@H]1CN([C@@H](C)CO)C(=O)c2cccc(NC(=O)C3CC3)c2O[C@@H]1CN(C)CC1CCCCC1,-6[16.7 µM],-13
Cc1ccc(-c2ccc3c(c2)O[C@@H](CN(C)C(=O)CN(C)C)[C@H](C)CN([C@H](C)CO)S3(=O)=O)cc1,18[16.7 µM],16
CO[C@H]1CN(C)C(=O)c2ccc(NC(=O)C3CC3)cc2OC[C@H](C)N(C(=O)c2ccccc2F)C[C@H]1C,12[16.7 µM],0
C[C@@H]1CN([C@@H](C)CO)S(=O)(=O)c2ccc(-c3cccc(C#N)c3)cc2O[C@H]1CN(C)C(=O)Nc1ccccc1F,-15[16.7 µM],-11
CCCC(=O)Nc1ccc2c(c1)C(=O)N(C)C[C@@H](OC)[C@@H](C)CN(C(=O)c1ccncc1)[C@H](C)CO2,17[16.7 µM],34
Cc1ccc(S(=O)(=O)N(C)C[C@@H]2Oc3ccc(NS(=O)(=O)c4cccs4)cc3CC(=O)N([C@H](C)CO)C[C@H]2C)cc1,6[16.7 µM],1
C[C@H]1CN([C@@H](C)CO)S(=O)(=O)c2ccc(-c3cccnc3)cc2O[C@@H]1CN(C)Cc1ccccn1,11[16.7 µM],-18
C[C@H]1CN([C@@H](C)CO)C(=O)c2cccc(NC(=O)Nc3ccc(F)cc3)c2O[C@H]1CN(C)S(C)(=O)=O,6[16.7 µM],-2
O=C(Cc1ccccn1)N[C@@H]1CC[C@H](CCn2cc(-c3cccnc3)nn2)O[C@H]1CO,4[16.7 µM],2
C[C@H](CO)N1C[C@H](C)[C@@H](CN(C)Cc2ccc(C(=O)O)cc2)OCCCC[C@H](C)Oc2ccc(NC(=O)CCC(F)(F)F)cc2C1=O,3,-10
COCC#Cc1cnc2c(c1)C(=O)N([C@@H](C)CO)C[C@@H](C)[C@H](CN(C)S(=O)(=O)c1cn(C)cn1)O2,-9[16.7 µM],-3
C[C@H](CO)N1C[C@H](C)[C@@H](CN(C)Cc2ccc3c(c2)OCO3)Oc2ccc(NS(=O)(=O)c3ccc(Cl)cc3)cc2CC1=O,29[16.7 µM],1
C[C@@H]1CCCCO[C@H](CN(C)S(=O)(=O)c2ccc(F)cc2)[C@H](C)CN([C@@H](C)CO)C(=O)c2cc(NS(C)(=O)=O)ccc2O1,-16[16.7 µM],28
O=C(NCC[C@H]1CC[C@H](NC(=O)C2CCCC2)[C@@H](CO)O1)c1cnccn1,24[16.7 µM],5
C[C@@H]1CCCCO[C@H](CN(C)C(=O)c2ccccc2)[C@H](C)CN([C@@H](C)CO)C(=O)c2cc(NC(=O)Nc3ccccc3)ccc2O1,-16[16.7 µM],21
C[C@@H]1CN([C@H](C)CO)S(=O)(=O)c2ccc(C#CCN(C)C)cc2O[C@@H]1CN(C)C(=O)CN(C)C,-6[16.7 µM],23
CCC(=O)N(C)C[C@@H]1Oc2cc(C#Cc3ccncc3)ccc2S(=O)(=O)N([C@H](C)CO)C[C@H]1C,12[16.7 µM],11
Cc1noc(C)c1S(=O)(=O)Nc1ccc2c(c1)CC(=O)N([C@@H](C)CO)C[C@@H](C)[C@@H](CN(C)S(=O)(=O)c1cn(C)cn1)O2,15[16.7 µM],13
C[C@@H]1CN([C@@H](C)CO)C(=O)c2cc(NC(=O)CCC(F)(F)F)ccc2O[C@H]1CN(C)C(=O)NC1CCCCC1,-2[16.7 µM],11
C[C@@H]1CN([C@@H](C)CO)C(=O)c2cc(NC(=O)c3ccncc3)ccc2O[C@@H](C)CCCCO[C@H]1CN(C)C(=O)Nc1cccc2ccccc12,16[16.7 µM],12
O=C(CN1CCOCC1)N[C@@H]1CC[C@H](CCNC(=O)C2CCCC2)O[C@@H]1CO,-17[16.7 µM],-14
COc1ccc(CN(C)C[C@@H]2OCCCC[C@@H](C)Oc3ccc(NC(=O)Nc4ccc(OC)cc4)cc3C(=O)N([C@H](C)CO)C[C@H]2C)cc1,-13[16.7 µM],15
C[C@H]1CCCCO[C@H](CN(C)C(=O)C2CCCCC2)[C@@H](C)CN([C@@H](C)CO)C(=O)c2cc(NC(=O)Nc3ccc4c(c3)OCO4)ccc2O1,-6[16.7 µM],-13
Cc1ccc(S(=O)(=O)N(C)C[C@H]2Oc3ccc(NS(=O)(=O)c4ccccc4)cc3C(=O)N([C@@H](C)CO)C[C@@H]2C)cc1,-8[16.7 µM],15
C[C@@H]1CN([C@@H](C)CO)S(=O)(=O)c2ccc(-c3ccc(F)cc3)cc2O[C@@H]1CN(C)C(=O)C1CC1,13[16.7 µM],7
C[C@@H]1CCCCO[C@@H](CN(C)S(=O)(=O)c2cccs2)[C@@H](C)CN([C@H](C)CO)C(=O)c2cc(NC(=O)Nc3ccc4c(c3)OCO4)ccc2O1,5[16.7 µM],-15
C[C@@H]1CN([C@@H](C)CO)C(=O)c2cc(/C=C/c3ccccc3)cnc2O[C@H]1CN(C)Cc1cncnc1,-8[16.7 µM],-8
C/C=C/c1ccc2c(c1)O[C@@H](CN(C)Cc1cccc(F)c1)[C@@H](C)CN([C@H](C)CO)S2(=O)=O,28[16.7 µM],105*
COc1ccc(S(=O)(=O)Nc2ccc3c(c2)OC[C@@H](C)NC[C@H](C)[C@@H](OC)CN(C)C3=O)cc1,-5[16.7 µM],-3
C[C@@H]1CN([C@@H](C)CO)C(=O)Cc2cc(NS(=O)(=O)c3ccc(F)cc3)ccc2O[C@H]1CN(C)C(=O)Nc1ccccc1,1[16.7 µM],13
COc1ccc(S(=O)(=O)N(C)C[C@@H]2OCCCC[C@@H](C)Oc3ccc(NS(=O)(=O)c4cccs4)cc3C(=O)N([C@@H](C)CO)C[C@H]2C)cc1,-33[16.7 µM],-11
C[C@H]1CN([C@@H](C)CO)C(=O)c2cc(NC(=O)Cn3cnnn3)ccc2O[C@H]1CN(C)Cc1ccc(Cl)c(Cl)c1,-8[16.7 µM],24
C[C@H]1CN([C@@H](C)CO)C(=O)c2cc(C#CC3CC3)cnc2O[C@H]1CN(C)C(=O)c1ccc(F)cc1,12[16.7 µM],9
COCC#Cc1cnc2c(c1)C(=O)N([C@H](C)CO)C[C@@H](C)[C@H](CN(C)C(=O)Nc1cccc(F)c1)O2,25[16.7 µM],4
O=C(C[C@H]1C=C[C@@H](NS(=O)(=O)c2ccc(F)cc2)[C@H](CO)O1)NCCN1CCCCC1,-5[16.7 µM],-7
O=C(C[C@@H]1CC[C@@H]2[C@H](COC[C@H](O)CN2C(=O)c2ccc(F)cc2)O1)NC1Cc2ccccc2C1,16[16.7 µM],2
CNC[C@H]1OCCCC[C@H](C)Oc2ccc(NC(=O)Cc3ccccc3)cc2C(=O)N([C@H](C)CO)C[C@@H]1C,-2[16.7 µM],14
O=C(NCC[C@@H]1CC[C@H](NC(=O)C2CCCCC2)[C@H](CO)O1)c1cc(Cl)cc(Cl)c1,-43[16.7 µM],-13
COCC(=O)N1C[C@@H](C)[C@@H](OC)CN(C)C(=O)c2ccc(NC(=O)Nc3ccccc3)cc2OC[C@H]1C,-5[16.7 µM],-10

# The results go on.
SMILES,HIV Env fusion,UUG fidelity
C[C@H]1CN([C@@H](C)CO)C(=O)c2cc(C#Cc3cccc(F)c3)cnc2O[C@@H]1CN(C)C(=O)C1CCCCC1,-15[16.7 µM],4
Cc1noc(C)c1NC(=O)Nc1ccc2c(c1)CC(=O)N([C@@H](C)CO)C[C@@H](C)[C@@H](CN(C)S(=O)(=O)c1ccc(F)cc1)O2,-16[16.7 µM],0
Cc1noc(C)c1NC(=O)N(C)C[C@@H]1Oc2c(NC(=O)C3CCOCC3)cccc2C(=O)N([C@@H](C)CO)C[C@H]1C,-25[16.7 µM],-4
C[C@H]1CN([C@@H](C)CO)C(=O)CCCn2cc(nn2)CO[C@@H]1CN(C)C(=O)NC1CCCC1,24[16.7 µM],2
CC(C)CC#Cc1ccc2c(c1)O[C@H](CN(C)C(=O)CN(C)C)[C@@H](C)CN([C@@H](C)CO)S2(=O)=O,9[16.7 µM],8
C[C@H]1CN([C@@H](C)CO)C(=O)c2cc(C#CCc3ccccc3)cnc2O[C@@H]1CN(C)C(=O)C1CC1,-2[16.7 µM],-2
COCC(=O)N(C)C[C@@H]1Oc2ncc(C#C[C@@H](C)O)cc2C(=O)N([C@@H](C)CO)C[C@H]1C,-43[16.7 µM],0
